Source: PubChem BioAssay (several laboratories)
T cruzi inh – blocks replication of Trypanosoma cruzi; T. cruzi beta-gal in NIH3T3, luminescence, 90 h; inhibition, % (test concentration not listed); 300,000 compounds, 1.4% hits; AID 1885;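 active = mean inhibition across valid replicates above about 55%, limit read from the data; inconclusive = mean below that limit but half or more replicates reach it; inactive = mean below it, under half of replicates reach it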;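 note: signal also drops with host cell toxicity which is not excluded here; 0% = plate median of DMSO wells and 100% = zero luminescence signal; higher percent means less beta-gal luminescence so fewer parasites; stock transfer was 50 nL into about 50 µL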
MLL AF4-AF9 inh – MLL-AF4/AF9 protein interaction inhibition; P42568; AlphaScreen, biotin-AF4 peptide binding to FLAG-AF9; inhibition, % at 10 µM; 350,000 compounds, 0.47% hits; AID 651704;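 active = every replicate reaching a set inhibition limit, whatever the replicate mean, cut at about 25% in these data; inconclusive = mean inhibition reaches that limit but some replicates miss it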;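 note: 0% = plate neutral control median and 100% = total signal loss; the record names both 10 and 1 µM as test concentration; the first replicate is given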
Target sequence (P42568 whole entry, looked up): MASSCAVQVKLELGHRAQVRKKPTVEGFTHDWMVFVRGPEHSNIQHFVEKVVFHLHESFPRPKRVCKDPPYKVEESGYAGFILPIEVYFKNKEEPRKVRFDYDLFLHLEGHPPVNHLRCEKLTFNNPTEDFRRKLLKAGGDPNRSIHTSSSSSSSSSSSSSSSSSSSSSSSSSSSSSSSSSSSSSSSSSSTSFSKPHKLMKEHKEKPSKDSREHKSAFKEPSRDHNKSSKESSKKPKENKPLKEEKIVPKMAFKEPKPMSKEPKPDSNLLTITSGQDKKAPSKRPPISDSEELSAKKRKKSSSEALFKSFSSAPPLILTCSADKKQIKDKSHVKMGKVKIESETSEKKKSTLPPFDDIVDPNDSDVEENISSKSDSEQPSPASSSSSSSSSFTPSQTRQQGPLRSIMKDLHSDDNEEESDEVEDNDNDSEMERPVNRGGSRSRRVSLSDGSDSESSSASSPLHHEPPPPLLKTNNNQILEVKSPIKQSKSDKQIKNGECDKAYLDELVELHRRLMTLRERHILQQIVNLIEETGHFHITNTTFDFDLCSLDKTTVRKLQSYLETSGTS
RanGTP-Impb inh – disruptors of Ran-importin-beta complex formation – biochemical, FRET, CFP-Ran, YFP-importin-beta, homogeneous, primary screen | AID 2216 | cell-free CFP-Ran/YFP-importin-beta FRET ratio | inhibition, % (test concentration not listed) | 300,000 compounds, 1.1% hits;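 active = most replicates above 15%; inconclusive = exactly half above 15%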;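 note: 0% = DMSO wells and 100% = Ran loaded with GDP instead of GTP; wells of about 40 µL received 100 nL stock; the first replicate is given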
Calb FLC – C. albicans growth modulation with fluconazole; C. albicans CaCi-2 (fluconazole-resistant clinical isolate) + fluconazole, Alamar Blue growth, 48 h; growth inhibition, % (no concentration beside the values); 300,000 compounds, 0.57% hits; AID 1979;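 active = most replicates above 75%; inconclusive = exactly half above 75%; inactive = most below 75%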;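 note: all wells also contain fluconazole at 8 µg/ml as a sub-toxic cotreatment; 0% = median of DMSO wells and 100% = median of geldanamycin control wells; wells of about 8 µL received 7.5 nL stock; the first replicate is given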
A1 inh – inhibitors of the anti-apoptotic protein A1, read as caspase activation; MEF A1-2A-BIM cells, Caspase-Glo 3/7 luminescence, 3 h; percent of clofoctol response, vehicle zero; 330,000 compounds, 0.066% hits; caspase activation, % (test concentration not listed); AID 2462;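 active = over half of replicate activation scores above 10%, or exactly half above 10 with the replicate mean above 10; inconclusive = replicate mean below 10 yet half the replicates above 10; inactive = over half of replicates below 10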;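 note: wells of about 30 µL received 50 nL stock; many hits fall short of the cut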
Vif TR-FRET – inhibitors of Vif binding to APOBEC3G peptide, primary screen, biochemical, TR-FRET, GST-Vif 1-94, biotin-A3G peptide, dose response retest (AID 1117319). TR-FRET GST-Vif / biotin-A3G peptide binding; higher % means a stronger effect; test concentration not given here; strong numbers were not always called active. inhibition, %, or IC50 in µM where a hit was titrated. 260,000 compounds, 0.57% hits;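 active = above the screen mean plus three standard deviations and confirmed in dose response; inconclusive = results disagree or hit not tested in dose response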;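 note: Vif residues 1-94 fused to GST binding biotinylated APOBEC3G peptide 110-148; 0% = full assay without inhibitor and 100% = GST in place of GST-Vif; retest series ran down from 100 µM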
Beta cell apopt – blocks beta cell apoptosis. INS-1E cytokine-induced death, ATP luminescence, 48 h; percent of positive-control rescue, neutral wells zero. protection from apoptosis, % (no concentration beside the values). 300,000 compounds, 0.8% hits. AID 435005;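 active = all replicates at 75% or more, or half of them and the mean; inconclusive = half reach 75% but not the mean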;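 note: 0% = cytokine-treated negative control wells and 100% = positive control rescue; higher means more ATP so stronger rescue from cytokine killing; wells of about 40 µL received 100 nL stock; the first replicate is given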
LANA-H2B inh – blocks KSHV LANA binding to histone H2A/H2B; Q9QR71; cell-free LANA-H2A/H2B peptide, fluorescence polarization; inhibition, % (test concentration not listed); 320,000 compounds, 0.6% hits; in the data active = inhibition mostly above about 10%, no sharp cut-off; inactive = mostly below about 6.7%;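 note: stock transfer was 7.5 nL into about 10 µL; 0% = median of vehicle wells and 100% = median of positive control wells; one replicate is shown; the record names a cut of 25% in any replicate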
* = called active by the depositor; ? = inconclusive; nt = not tested or not shown. Rows are unselected. Share with any hit: about 4.3%.

SMILES	T cruzi inh	MLL AF4-AF9 inh	RanGTP-Impb inh	Calb FLC	A1 inh	Vif TR-FRET	Beta cell apopt	LANA-H2B inh
O=C(COc1ccc(Br)cc1Br)NC(=O)NC1CCCC1	16	-2.6	?	-22	0.0	-2%	-2	5.9
Cc1ccc(NCC(=O)N/N=C/c2cccc(Oc3ccccc3)c2)cc1	-5	nt	1.1	2	0.8	6%	-10	nt
Nc1nncn1C(=O)CCCOc1ccc(Cl)cc1Cl	2	nt	-0.1	3	-0.8	2%	-3	1.3
Cc1ccccc1CNc1nnnn1C	-5	0.6	-0.3	12	-0.1	3%	-5	2.0
CCN(CC)S(=O)(=O)c1ccc(NS(=O)(=O)c2ccc(F)cc2)cc1	4	nt	3.1	-7	0.2	1%	0	3.3
O=[N+]([O-])c1cccc(S(=O)(=O)Nc2cccc(-c3ccc(N4CCOCC4)nn3)c2)c1	13	-2.5	9.2	6	-6.9	-4%	8	-8.1
O=c1cc(-c2ccccc2Cl)oc2cc(O)cc(O)c12	-15	0.7	-0.1	-2	0.8	0%	4	12
O=C(CSc1nnc(Cn2nnc3ccccc32)o1)N(Cc1ccc(F)cc1)c1ccccc1	13	nt	1.2	10	-0.4	-3%	109*	1.2
Cc1nn(-c2ccc(Cl)c(Cl)c2)c(=O)c2ccccc12	-16	nt	-0.1	-7	0.5	-10%	nt	2.3
C[C@@H]1CC[C@]2(O[C@@H](CCO)C[C@H](O)[C@H]2O)O1	-8	0.0	3.2	0	0.4	nt	-11	-1.4
CCOc1ccccc1NC(=O)Nc1cc(S(=O)(=O)N(C)C)ccc1C	6	-1.8	1.5	12	-0.8	2%	nt	4.8
c1ccc(-c2nnc(-c3ccccc3)nn2)cc1	-2	4.4	-0.1	-26	-7.0	0%	-5	-5.6
CN(C)N1C(N)=C(C#N)C(c2ccc(Br)cc2)C2=C1CCCC2=O (stereo not given)	18	-0.3	-0.4	0	0.7	-2%	-8	2.8
COc1ccc(-c2ccc3c(c2)c(-c2cccs2)c(-c2cc(OC)cc(OC)c2)n3C)cc1	nt	-14	nt	nt	-0.8	nt	-3	11
COC(=O)C1CCN(C(=O)COC(=O)c2cccc(NS(=O)(=O)c3ccccc3)c2)CC1	5	-7.0	4.1	3	-0.5	-5%	nt	5.2
COc1cccc(-n2nnc3c(=O)n(Cc4ccccc4F)cnc32)c1	12	nt	1.8	-15	-0.5	3%	-9	0.9
O=C(O)CCC(=O)OCc1c(-c2ccccc2)ncc2ccccc12	nt	0.5	nt	nt	0.8	nt	-8	2.8
CN(Cc1ccccc1)C(=O)c1ccc2c(c1)S(=O)(=O)N=C1CCCCCN12	nt	5.4	nt	nt	0.1	1%	-12	-1.9
Cc1cc(N)n(-c2ccc(S(=O)(=O)N3CCCC3)cc2[N+](=O)[O-])n1	17	-5.6	4.3	-5	0.5	23%	-4	0.2
CCN(CC)S(=O)(=O)c1ccc2c(c1)c(=O)c(C(=O)NCCc1ccccc1)cn2C	29	-1.7	5.3	-4	-0.4	-9%	nt	-3.7
O=C(Cn1c(=O)[nH]c2ccccc2c1=O)N1CCN(c2cccc(Cl)c2)CC1	4	-2.2	3.3	-6	-0.2	96%	0	1.1
O=C(CCN1C(=O)C2C3C=CC(C3)C2C1=O)Nc1ccccc1F (stereo not given)	-19	nt	-7.5	1	-0.4	-1%	-2	-3.0
Cc1cc(Nc2nc(Cl)c(Cl)cc2Cl)n(-c2ccccc2)n1	10	nt	-13	-7	0.0	nt	-7	0.5
N#C/C(=C/c1cn[nH]c1-c1cccc(Br)c1)C(=O)O	-2	-14	-0.9	7	1.0	2%	-7	0.8
COc1ccccc1N1CCN(S(=O)(=O)c2ccccc2)CC1	10	nt	?	2	-0.6	20%	-3	2.3
O=C(CCNC(=O)Cn1ccc2ccccc2c1=O)NCCc1ccccc1Cl	-3	-11	2.0	-14	-0.1	-7%	-8	2.0
CN(C)S(=O)(=O)c1ccc(C(=O)OCCn2cnc3c2c(=O)n(C)c(=O)n3C)cc1	nt	0.8	nt	-32	-0.6	11%	-1	1.9
O=C(COc1cccc(C(F)(F)F)c1)NNC(=O)Cn1c(=O)cnc2ccccc21	-9	-10	-7.4	3	-0.2	nt	-4	1.0
Cc1ccc2cc(CN(CCN(C)C)C(=S)Nc3ccccc3)c(=O)[nH]c2c1C	23	11	1.9	?	-0.3	17%	0	0.4
COc1ccc(/C=C2\SC(=S)N(CC(=O)N(C)C3CCS(=O)(=O)C3)C2=O)cc1 (stereo not given)	0	0.1	6.8	3	-0.2	nt	-4	14*
CC(C)(C)SCCNS(=O)(=O)c1ccc(Cl)cc1	-12	-0.2	-2.8	-24	0.1	-5%	nt	-1.4
CC(C)c1ccc(NS(=O)(=O)c2ccc3c(c2)NC(=O)CO3)cc1	-22	2.9	6.2	13	nt	nt	nt	nt
CCN(CC)c1ccc(/C=N/N2CCN(Cc3ccccc3)CC2)c(O)c1	23	nt	?	-4	-2.2	nt	3	0.0
CCOC(=O)N1CCC(N2CC34C=CC(O3)C(C(=O)Nc3ccc(F)cc3)C4C2=O)CC1 (stereo not given)	-12	nt	-2.0	-5	-1.2	6%	-4	-7.2
CC12CCC(C(=O)NCCCN3CCOCC3)(OC1=O)C2(C)C (stereo not given)	-14	nt	0.2	-13	0.6	4%	-12	-3.4
COc1cc2c(cc1OC)C(C)N(C(=O)CCN1C(=O)C3C4C=CC(C4)C3C1=O)CC2 (stereo not given)	nt	nt	nt	nt	-0.4	16%	0	3.7
COc1ccc(-c2nc3cc([N+](=O)[O-])ccc3o2)cc1	-6	-4.0	-1.5	10	0.6	nt	-1	2.5
CCN(CC)c1c([N+](=O)[O-])ncn1C	-9	nt	0.9	-1	1.0	2%	-7	2.2
O=C(Nc1nnc(C2CC2)s1)C1CCCO1 (stereo not given)	-14	-0.2	-1.7	27	0.2	-6%	nt	7.3
COc1ccccc1C1NC(=O)CS1 (stereo not given)	-7	nt	2.6	-4	1.0	-3%	nt	-3.0
O=C(Cn1nnc(-c2cccs2)n1)N1CCOCC1	0	0.5	5.1	-23	-0.1	-1%	-5	-2.1
CCNc1ccc(C(=O)OCC(=O)Nc2cc(C)on2)cc1[N+](=O)[O-]	nt	-0.7	nt	nt	0.6	11%	0	-0.4
COc1ccc(N2CC(C(=O)N/N=C/c3ccc([N+](=O)[O-])cc3)CC2=O)cc1 (stereo not given)	6	4.4	-1.6	-6	-0.8	-7%	7	-5.9
N#C/C(=C/c1ccc(OCc2ccccc2)cc1)C(=O)NC1CCCCC1	8	nt	1.8	4	-1.7	0%	3	-3.2
COc1ccc(CC(=O)N(c2ccccc2)c2nc(C)cs2)cc1	3	2.1	-2.8	-2	0.0	19%	2	7.0
COCCNc1nc(-n2nc(C)cc2C)nc2sc3c(c12)CCCC3	50	nt	0.7	6	0.4	-3%	74	1.1
Cn1c(C(=O)N2CCCC(Nc3ccc(F)cc3)C2)cc2ccccc21 (stereo not given)	-20	1.7	-2.6	-9	-1.1	-7%	3	-5.9
Clc1cc(Br)ccc1OCCCNCc1ccccc1	37	nt	6.0	-7	-0.3	nt	7	3.7
CCn1cc(C(=O)N2CC(C)CC(C)C2)c(=O)c2cc(S(=O)(=O)N3CCCC3)ccc21 (stereo not given)	-14	-1.2	4.2	-3	0.4	nt	-1	2.6
COc1cc(C(=O)Nc2ccc(N3CCOCC3)cc2)ccc1OCc1c(C)noc1C	0	nt	0.5	-2	0.3	nt	0	2.1
Clc1cc(Br)ccc1OCCOCCOc1cccc2cccnc12	-7	nt	?	-10	-0.1	-7%	2	0.5
O=C(OC1Cn2c(=O)ccc(=O)n2C1)c1ccc([N+](=O)[O-])cc1	-14	2.6	-1.5	0	?	14%	-5	-1.7
COc1ccc(C(=O)N2CCC(C(=O)NC3CC3)CC2)cc1	2	0.5	-1.4	0	-1.1	nt	-7	-4.0
COc1ccc(CCNC(=O)CSc2ccc(-c3ccccc3)nn2)cc1OC	-2	-22	4.8	-2	-0.2	-2%	8	2.8
CCN1C(=O)N[C@@H](c2cccc(C(F)(F)F)c2)[C@H](C(=O)OC)[C@H]1C	-11	2.7	3.4	14	-0.3	nt	2	6.4
COCc1nnc(N)s1	-7	nt	-1.7	-2	1.8	-4%	-3	-0.1
N#Cc1ccccc1CN1C(=O)NC(Cc2c[nH]c3ccccc23)C1=O (stereo not given)	6	-0.2	-2.9	4	0.4	-3%	-4	-4.0
CCc1ccc(C(C(=O)NCc2ccc(F)cc2)N(C(=O)c2csnn2)C2CC2)cc1 (stereo not given)	?	-2.3	-0.8	28	0.0	-3%	-4	4.3
COc1ccc(S(=O)(=O)N2CCOC2CNC(=O)C(=O)NCc2ccccc2Cl)cc1 (stereo not given)	2	-4.8	-0.3	9	0.2	nt	2	0.5
O=C(Nc1cccc(O)c1)c1ccc(S(=O)(=O)N2CCCCCC2)cc1	-6	-19	4.5	-11	nt	-9%	nt	nt
(listing goes on)
SMILES	T cruzi inh	MLL AF4-AF9 inh	RanGTP-Impb inh	Calb FLC	A1 inh	Vif TR-FRET	Beta cell apopt	LANA-H2B inh
O=C(NCc1ccccc1)C(c1ccc(O)cc1)N(C(=O)c1cnccn1)c1ccccc1 (stereo not given)	-9	0.7	-0.8	2	0.0	nt	-5	-4.2
Cc1ccnc(Nc2nc(-c3ccc(O)cc3O)cs2)c1	14	13	6.1	12	0.3	7%	8	-2.5
COc1cc(CCC(=O)OCC(=O)N2CCc3ccccc32)cc(OC)c1OC	-3	-0.6	2.5	-4	1.9	-2%	-9	0.4
CCC(=O)NCC(c1cccs1)N1CCOCC1 (stereo not given)	-9	1.9	0.1	-6	-1.4	9%	-7	8.8
COc1ccc(OC)c(S(=O)(=O)N2CCC(C(=O)NCCc3ccc(OC)c(OC)c3)CC2)c1	-1	nt	0.9	24	-0.3	-2%	-4	-2.7
O=C1CCCN2N=C(SCC(=O)Nc3cccc(Cl)c3)SC2=N1	-15	-4.4	-1.3	-1	0.2	nt	-3	26*
CCOc1ccc(C2C(C(=O)c3ccc(C)o3)=C(O)C(=O)N2CCN2CCOCC2)cc1OC (stereo not given)	-7	nt	4.9	?	-0.4	8%	3	-4.9
Cc1c(C(=O)NCCSCc2ccccc2Cl)cccc1[N+](=O)[O-]	5	nt	5.3	0	1.3	0%	-2	-10
O=C(NCCc1nc2ccccc2[nH]1)c1ccco1	0	nt	3.5	2	0.3	3%	-9	0.2
COc1ccc(NC(=O)CN(C)C(=O)C2=COCCO2)cc1	-8	7.2	-0.2	4	-0.7	-3%	-5	1.9
O=C(NCc1ccncc1)c1cccc(S(=O)(=O)NCc2ccccc2)c1	-2	12	3.1	0	-0.3	-1%	-2	5.3
Cc1oc(C(C)(C)C)cc1C(=O)Nc1cccc(/C=C/C(=O)O)c1	1	nt	2.1	-6	1.5	2%	0	-0.7
COCCCNC(=O)C1CC(=O)N(CCc2ccc(OC)c(OC)c2)C1 (stereo not given)	-9	nt	1.0	-4	-0.2	24%	-7	1.2
